Screens from PubChem BioAssay.
UUG fidelity – alters start codon recognition fidelity in yeast | S. cerevisiae UUG-firefly luciferase reporter, luminescence/redox ratio | activity score, % at 18.7 µM | actives 0.13% (n = 350,000);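 active = replicate mean at a twofold rise or more, about +100% in these data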;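 note: firefly luciferase made from a UUG start codon reports start codon fidelity; reporter light over untreated wells divided by growth signal over untreated wells; some hits fall short of that in this replicate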
HIV Env fusion – inhibitors of HIV Env-mediated cell fusion; inhibition, % at 12.3 µM; actives 1.1% (n = 360,000); HeLa-JRFL Env/CEM21 cell fusion, luciferase;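 active = mean replicate inhibition score of at least 50 and every replicate individually at or above 50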;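 note: 0% = plate neutral controls and 100% = maraviroc near 300 nM; one replicate is shown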
The depositor's hits bear a star; [ ] = dose if it differs, or a comment. Some of the compounds tested; the hit share may differ from the screen's.

Each structure is followed by: UUG fidelity, HIV Env fusion
> C[C@@H]1CCCCO[C@@H](CN(C)C(=O)NC2CCCCC2)[C@@H](C)CN([C@@H](C)CO)C(=O)c2cc(NC(=O)Nc3ccccc3)ccc2O1
  32, -10[16.7 µM]
> CCCC#Cc1cnc2c(c1)C(=O)N([C@@H](C)CO)C[C@@H](C)[C@H](CN(C)C)O2
  6, -14[16.7 µM]
> COCC#Cc1cnc2c(c1)C(=O)N([C@@H](C)CO)C[C@H](C)[C@@H](CN(C)C(=O)C1CCC1)O2
  36, 9[16.7 µM]
> C[C@@H]1CN([C@H](C)CO)C(=O)c2cc(NS(=O)(=O)c3cccs3)ccc2O[C@@H]1CN(C)C(=O)Nc1ccccc1
  -9, -45[16.7 µM]
> Cc1ccccc1S(=O)(=O)NCC[C@@H]1CC[C@@H](NC(=O)Nc2cccc(F)c2)[C@@H](CO)O1
  8, -13[16.7 µM]
> C[C@@H]1CN([C@@H](C)CO)C(=O)c2cc(NC(=O)Nc3cccc4ccccc34)ccc2O[C@@H](C)CCCCO[C@H]1CN(C)C(=O)NC1CCCCC1
  -35, 25[16.7 µM]
> C[C@H](CO)N1C[C@H](C)[C@H](CN(C)C(=O)Cc2ccncc2)Oc2cc(C#CC3CCCCC3)ccc2S1(=O)=O
  -4, 29[16.7 µM]
> O=C(NCC[C@H]1CC[C@@H](NS(=O)(=O)c2ccccc2)[C@@H](CO)O1)c1ccc2c(c1)OCO2
  17, 19[16.7 µM]
> COc1ccc(NC(=O)Nc2ccc3c(c2)C(=O)N([C@H](C)CO)C[C@@H](C)[C@@H](CN(C)Cc2ccc(C(F)(F)F)cc2)OCCCC[C@H](C)O3)cc1
  3, 14[16.7 µM]
> CCCNC(=O)C[C@H]1CC[C@@H]2[C@H](COc3ccc(NC(=O)c4ccc(OC)cc4)cc3C(=O)N2C)O1
  5, 12[16.7 µM]

Some of the entries above in a different format:
SMILES	UUG fidelity	HIV Env fusion
C[C@H](CO)N1C[C@H](C)[C@H](CN(C)C(=O)Cc2ccncc2)Oc2cc(C#CC3CCCCC3)ccc2S1(=O)=O	-4	29[16.7 µM]
O=C(NCC[C@H]1CC[C@@H](NS(=O)(=O)c2ccccc2)[C@@H](CO)O1)c1ccc2c(c1)OCO2	17	19[16.7 µM]
COc1ccc(NC(=O)Nc2ccc3c(c2)C(=O)N([C@H](C)CO)C[C@@H](C)[C@@H](CN(C)Cc2ccc(C(F)(F)F)cc2)OCCCC[C@H](C)O3)cc1	3	14[16.7 µM]
CCCNC(=O)C[C@H]1CC[C@@H]2[C@H](COc3ccc(NC(=O)c4ccc(OC)cc4)cc3C(=O)N2C)O1	5	12[16.7 µM]

Next part
Each structure is followed by: UUG fidelity, HIV Env fusion
> O=C(C[C@@H]1C=C[C@H](NC(=O)Nc2ccc(F)cc2)[C@@H](CO)O1)NCc1cccc(F)c1
  0, -14[16.7 µM]
> C[C@H]1CN([C@@H](C)CO)S(=O)(=O)c2ccc(-c3ccc(C(=O)N(C)C)cc3)cc2O[C@H]1CN(C)C(=O)C1CCOCC1
  18, 7[16.7 µM]
> N#C[C@H]1[C@H](c2ccc(C#Cc3ccccc3F)cc2)[C@@H](CO)N1C(=O)C1CCOCC1
  2, 18[16.7 µM]
> C[C@@H]1CN([C@@H](C)CO)C(=O)c2cc(NC(=O)C3CCCCC3)ccc2O[C@H]1CN(C)S(=O)(=O)c1ccc(Cl)cc1
  9, -25[16.7 µM]
> COc1ccccc1C#Cc1cnc2c(c1)C(=O)N([C@@H](C)CO)C[C@H](C)[C@H](CN(C)C(C)=O)O2
  4, 7[16.7 µM]
> C[C@@H]1CN([C@@H](C)CO)C(=O)Cc2cc(NS(C)(=O)=O)ccc2O[C@H]1CN(C)S(=O)(=O)c1ccc(F)cc1
  -10, -1[16.7 µM]
> O=C(NCC[C@@H]1CC[C@H](NS(=O)(=O)c2cccc(Cl)c2)[C@H](CO)O1)c1cnccn1
  10, 12[16.7 µM]
> C[C@H](CO)N1C[C@H](C)[C@H](CN(C)Cc2ccc(Cl)c(Cl)c2)Oc2c(NC(=O)NC3CCCCC3)cccc2C1=O
  12, -4[16.7 µM]
> C[C@@H]1CCCCO[C@@H](CN(C)Cc2ccc3c(c2)OCO3)[C@H](C)CN([C@@H](C)CO)C(=O)c2cc(NC(=O)NC3CCCCC3)ccc2O1
  6, -7[16.7 µM]
> CCO[C@H]1OC(C(=O)O)=C[C@@H](c2ccc(Br)cc2)[C@@H]1CCCO
  1, -3[16.7 µM]

Some of these compounds in order of their number in UUG fidelity, descending.
| Structure | UUG fidelity |
| --- | --- |
| C[C@H](CO)N1C[C@H](C)[C@H](CN(C)Cc2ccc(Cl)c(Cl)c2)Oc2c(NC(=O)NC3CCCCC3)cccc2C1=O | 12 |
| O=C(NCC[C@@H]1CC[C@H](NS(=O)(=O)c2cccc(Cl)c2)[C@H](CO)O1)c1cnccn1 | 10 |
| C[C@@H]1CCCCO[C@@H](CN(C)Cc2ccc3c(c2)OCO3)[C@H](C)CN([C@@H](C)CO)C(=O)c2cc(NC(=O)NC3CCCCC3)ccc2O1 | 6 |
| COc1ccccc1C#Cc1cnc2c(c1)C(=O)N([C@@H](C)CO)C[C@H](C)[C@H](CN(C)C(C)=O)O2 | 4 |
| N#C[C@H]1[C@H](c2ccc(C#Cc3ccccc3F)cc2)[C@@H](CO)N1C(=O)C1CCOCC1 | 2 |

Following part
Each structure is followed by: UUG fidelity, HIV Env fusion
> CN(C)CCCNC(=O)C[C@H]1C=C[C@@H](NC(=O)c2ccccc2F)[C@@H](CO)O1
  3, -24[16.7 µM]
> C[C@H]1CN([C@@H](C)CO)S(=O)(=O)c2ccc(-c3ccc(F)cc3)cc2O[C@H]1CN(C)Cc1cccc(F)c1
  -1, 62*[16.7 µM]
> C[C@@H]1CN([C@@H](C)CO)C(=O)c2cccc(NS(C)(=O)=O)c2O[C@@H]1CN(C)CC1CC1
  25, -3[16.7 µM]
> C[C@@H]1CN([C@H](C)CO)C(=O)c2cc(NS(=O)(=O)c3ccccc3)ccc2O[C@@H](C)CCCCO[C@H]1CN(C)C(=O)Nc1ccccc1
  2, -50[16.7 µM]
> C[C@H](O)C#Cc1ccc2c(c1)O[C@H](CN(C)Cc1ccccc1)[C@H](C)CN([C@@H](C)CO)S2(=O)=O
  -4, 9[16.7 µM]
> COc1ccc(NC(=O)Nc2ccc3c(c2)C(=O)N([C@@H](C)CO)C[C@H](C)[C@@H](CN(C)S(=O)(=O)c2ccc(F)cc2)O3)cc1
  -6, -6[16.7 µM]
> C[C@@H]1CN([C@@H](C)CO)C(=O)c2cccc(NC(=O)Nc3ccc(F)cc3)c2O[C@@H]1CN(C)S(=O)(=O)c1cccs1
  14, -14[16.7 µM]
> C[C@@H]1CN([C@H](C)CO)C(=O)c2cc(NC(=O)Cc3ccccc3)ccc2O[C@@H](C)CCCCO[C@@H]1CN(C)S(=O)(=O)c1cn(C)cn1
  6, -17[16.7 µM]
> COc1ccc(S(=O)(=O)Nc2ccc3c(c2)C(=O)N([C@H](C)CO)C[C@H](C)[C@H](CN(C)C(=O)Nc2ccc(C(F)(F)F)cc2)OCCCC[C@H](C)O3)cc1
  -15, 17[16.7 µM]
> CO[C@@H]1CN(C)C(=O)c2ccc(NS(=O)(=O)CC(F)(F)F)cc2OC[C@H](C)N(C(=O)c2ccc3c(c2)OCO3)C[C@H]1C
  5, -10[16.7 µM]

Next structures:
Each structure is followed by: UUG fidelity, HIV Env fusion
> C[C@H](CO)N1C[C@H](C)[C@@H](CN(C)C(=O)c2ccccc2F)Oc2ncc(C#Cc3ccncc3)cc2C1=O
  7, -4[16.7 µM]
> C[C@H](CO)N1C[C@H](C)[C@H](CN(C)Cc2ccccc2)Oc2cc(C#C[C@@H](C)O)ccc2S1(=O)=O
  2, 1[16.7 µM]
> CC(C)c1cn(CC[C@@H]2CC[C@@H](NS(=O)(=O)c3ccc(F)cc3)[C@@H](CO)O2)nn1
  -7, 8[16.7 µM]
> C[C@@H]1CN([C@H](C)CO)C(=O)c2cc(NC(=O)Cc3cn(C)c4ccccc34)ccc2O[C@@H]1CN(C)S(C)(=O)=O
  15, 11[16.7 µM]
> C[C@H](CO)N1C[C@H](C)[C@H](CN(C)C(=O)NC2CCCCC2)Oc2ccc(NS(C)(=O)=O)cc2CC1=O
  -16, -3[16.7 µM]
> COc1ccc(NC(=O)Nc2ccc3c(c2)C(=O)N([C@@H](C)CO)C[C@H](C)[C@@H](CN(C)C(=O)CCC(F)(F)F)OCCCC[C@H](C)O3)cc1
  0, 23[16.7 µM]
> C[C@@H]1CN([C@@H](C)CO)S(=O)(=O)c2ccc(-c3ccccc3)cc2O[C@H]1CN(C)C(=O)CC1CC1
  -3, -6[16.7 µM]
> C[C@@H]1CN([C@H](C)CO)C(=O)c2cc(NC(=O)Nc3ccccc3)ccc2O[C@@H](C)CCCCO[C@H]1CN(C)S(=O)(=O)c1cn(C)cn1
  6, -12[16.7 µM]
> CC(C)C(=O)Nc1ccc2c(c1)C(=O)N(C)[C@H]1CC[C@H](CC(=O)NCc3cccc(F)c3)O[C@@H]1CO2
  4, 6[16.7 µM]
> CCC(=O)Nc1ccc2c(c1)C(=O)N(C)[C@H]1CC[C@@H](CC(=O)NCc3ccccc3Cl)O[C@@H]1CO2
  13, 1[16.7 µM]

The list continues:
Each structure is followed by: UUG fidelity, HIV Env fusion
> C[C@@H]1CN([C@@H](C)CO)C(=O)c2cc(C#CCN(C)C)cnc2O[C@@H]1CN(C)C(=O)Cc1ccncc1
  -10, 2[16.7 µM]
> C[C@@H]1CN([C@@H](C)CO)C(=O)Cc2cc(NC(=O)Nc3ccccc3)ccc2O[C@@H]1CN(C)Cc1ccccc1
  -7, 8[16.7 µM]
> C[C@@H]1CN([C@H](C)CO)C(=O)c2cc(NS(=O)(=O)c3ccc(F)cc3)ccc2O[C@@H](C)CCCCO[C@@H]1CN(C)CC1CCCCC1
  17, -8[16.7 µM]
> C[C@H](CO)N1C[C@H](C)[C@H](CN(C)S(=O)(=O)c2cn(C)cn2)OCCCC[C@H](C)Oc2ccc(NC(=O)CCCN(C)C)cc2C1=O
  -4, 2[16.7 µM]
> O=S(=O)(N[C@@H]1CC[C@@H](CCn2cc(-c3ccc(F)cc3)nn2)O[C@H]1CO)c1ccccc1F
  4, 5[16.7 µM]
> COCC(=O)Nc1ccc2c(c1)[C@H]1C[C@@H](CC(=O)NCc3ccc(Cl)cc3)O[C@@H](CO)[C@H]1O2
  -4, 12[16.7 µM]
> C[C@@H]1CCCCO[C@H](CN(C)CC2CC2)[C@@H](C)CN([C@@H](C)CO)C(=O)c2cc(NS(=O)(=O)c3ccc(Cl)cc3)ccc2O1
  12, -13[16.7 µM]
> N#C[C@H]1[C@@H](c2ccc(C3=CCCC3)cc2)[C@H](CO)N1C(=O)C1CCC1
  -13, 4[16.7 µM]
> C[C@H]1CCCCO[C@@H](CN(C)Cc2ccc(C(F)(F)F)cc2)[C@@H](C)CN([C@@H](C)CO)C(=O)c2cc(NC(=O)C3CCCCC3)ccc2O1
  13, 19[16.7 µM]
> C[C@@H]1CN([C@@H](C)CO)C(=O)c2cc(N(C)C)ccc2O[C@H]1CN(C)Cc1ccc(C(F)(F)F)cc1
  -3, 15[16.7 µM]

(next part)
Each structure is followed by: UUG fidelity, HIV Env fusion
> Cc1ccc(-c2ccc3c(c2)O[C@@H](CN(C)C)[C@@H](C)CN([C@@H](C)CO)S3(=O)=O)cc1
  -7, -4[16.7 µM]
> CCC(=O)N(C)C[C@H]1Oc2cc(-c3ccc(C)cc3)ccc2S(=O)(=O)N([C@@H](C)CO)C[C@@H]1C
  3, -4[16.7 µM]
> C[C@@H]1CN([C@H](C)CO)C(=O)Cc2cc(NC(=O)Nc3ccccc3)ccc2O[C@@H]1CN(C)C(=O)Nc1ccccc1
  6, 20[16.7 µM]
> O=C(N[C@H]1C=C[C@@H](CC(=O)N2CCCCC2)O[C@@H]1CO)c1ccccn1
  -3, -1[16.7 µM]
> COc1ccc(NC(=O)N(C)C[C@@H]2OCCCC[C@H](C)Oc3ccc(NC(=O)NC4CCCCC4)cc3C(=O)N([C@H](C)CO)C[C@@H]2C)cc1
  -6, -38[16.7 µM]
> COc1ccc(CN(C)C[C@H]2OCCCC[C@@H](C)Oc3ccc(NS(=O)(=O)c4cn(C)cn4)cc3C(=O)N([C@H](C)CO)C[C@H]2C)cc1
  8, -4[16.7 µM]
> Cc1noc(C)c1S(=O)(=O)N(C)C[C@H]1OCCCC[C@@H](C)Oc2ccc(NS(=O)(=O)c3ccc(F)cc3)cc2C(=O)N([C@@H](C)CO)C[C@H]1C
  12, 6[16.7 µM]
> C[C@@H]1CCCCO[C@H](CN(C)C(=O)Cc2ccccc2)[C@@H](C)CN([C@@H](C)CO)C(=O)c2cc(NC(=O)c3ccccc3)ccc2O1
  0, -190[16.7 µM]
> C[C@@H]1CN([C@H](C)CO)C(=O)Cc2cc(NC(=O)C3CC3)ccc2O[C@H]1CN(C)Cc1ccncc1
  -5, -8[16.7 µM]
> C[C@@H]1CCCCO[C@@H](CN(C)S(=O)(=O)c2ccc(Cl)cc2)[C@@H](C)CN([C@H](C)CO)C(=O)c2cc(NC(=O)Nc3ccc(F)cc3)ccc2O1
  3, -2[16.7 µM]

(continued)
Each structure is followed by: UUG fidelity, HIV Env fusion
> Cc1noc(C)c1NC(=O)Nc1ccc2c(c1)C(=O)N([C@H](C)CO)C[C@@H](C)[C@H](CN(C)C(=O)c1ccccc1)OCCCC[C@H](C)O2
  7, 6[16.7 µM]
> Cc1noc(C)c1S(=O)(=O)N(C)C[C@H]1OCCCC[C@@H](C)Oc2ccc(NC(=O)CCCN(C)C)cc2C(=O)N([C@@H](C)CO)C[C@H]1C
  3, 9[16.7 µM]
> Cc1noc(C)c1S(=O)(=O)N(C)C[C@@H]1Oc2c(NS(=O)(=O)c3cn(C)cn3)cccc2C(=O)N([C@H](C)CO)C[C@H]1C
  -9, -6[16.7 µM]
> C[C@@H](NC(=O)C[C@H]1CC[C@H]2[C@@H](COC[C@H](O)CN2Cc2cc(F)ccc2F)O1)c1ccccc1
  18, 1[16.7 µM]
